# Screens as filed in PubChem.
# B2AR ag: agonists of human beta-2 adrenergic receptor inducing internalization; Am2.2-beta2AR cells, FAP receptor internalization, flow cytometry; reference of the scale not given here; response, % (test concentration not listed); 340,000 compounds, 0.43% hits; AID 504454;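 active = response above a set limit, near 3 SD of response in nonfluorescent compounds, cut at about 42% in these data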;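 note: stock transfer was 100 nL into about 11 µL; a reference agonist was the positive control; negative values mostly stem from fluorescent compounds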
# Beta cell apopt: blocks beta cell apoptosis | INS-1E cytokine-induced death, ATP luminescence, 48 h; percent of positive-control rescue, neutral wells zero | protection from apoptosis, % (no concentration beside the values) | 300,000 compounds, 0.8% hits | AID 435005;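 active = all replicates at 75% or more, or half of them and the mean; inconclusive = half reach 75% but not the mean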;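 note: 0% = cytokine-treated negative control wells and 100% = positive control rescue; higher means more ATP so stronger rescue from cytokine killing; wells of about 40 µL received 100 nL stock; the first replicate is given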
# Calb FLC: C. albicans growth modulation with fluconazole; growth inhibition, % (test concentration not listed); 300,000 compounds, 0.57% hits; C. albicans CaCi-2 (fluconazole-resistant clinical isolate) + fluconazole, Alamar Blue growth, 48 h;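 active = most replicates above 75%; inconclusive = exactly half above 75%; inactive = most below 75%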;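 note: all wells also contain fluconazole at 8 µg/ml as a sub-toxic cotreatment; 0% = median of DMSO wells and 100% = median of geldanamycin control wells; wells of about 8 µL received 7.5 nL stock; the first replicate is given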
# LANA-H2B inh: blocks KSHV LANA binding to histone H2A/H2B | 320,000 compounds, 0.6% hits | Q9QR71 | cell-free LANA-H2A/H2B peptide, fluorescence polarization | inhibition, % (no concentration beside the values); in the data active = inhibition mostly above about 10%, no sharp cut-off; inactive = mostly below about 6.7%;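 note: stock transfer was 7.5 nL into about 10 µL; 0% = median of vehicle wells and 100% = median of positive control wells; one replicate is shown; the record names a cut of 25% in any replicate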
# Target sequence (Q9QR71 whole entry, looked up): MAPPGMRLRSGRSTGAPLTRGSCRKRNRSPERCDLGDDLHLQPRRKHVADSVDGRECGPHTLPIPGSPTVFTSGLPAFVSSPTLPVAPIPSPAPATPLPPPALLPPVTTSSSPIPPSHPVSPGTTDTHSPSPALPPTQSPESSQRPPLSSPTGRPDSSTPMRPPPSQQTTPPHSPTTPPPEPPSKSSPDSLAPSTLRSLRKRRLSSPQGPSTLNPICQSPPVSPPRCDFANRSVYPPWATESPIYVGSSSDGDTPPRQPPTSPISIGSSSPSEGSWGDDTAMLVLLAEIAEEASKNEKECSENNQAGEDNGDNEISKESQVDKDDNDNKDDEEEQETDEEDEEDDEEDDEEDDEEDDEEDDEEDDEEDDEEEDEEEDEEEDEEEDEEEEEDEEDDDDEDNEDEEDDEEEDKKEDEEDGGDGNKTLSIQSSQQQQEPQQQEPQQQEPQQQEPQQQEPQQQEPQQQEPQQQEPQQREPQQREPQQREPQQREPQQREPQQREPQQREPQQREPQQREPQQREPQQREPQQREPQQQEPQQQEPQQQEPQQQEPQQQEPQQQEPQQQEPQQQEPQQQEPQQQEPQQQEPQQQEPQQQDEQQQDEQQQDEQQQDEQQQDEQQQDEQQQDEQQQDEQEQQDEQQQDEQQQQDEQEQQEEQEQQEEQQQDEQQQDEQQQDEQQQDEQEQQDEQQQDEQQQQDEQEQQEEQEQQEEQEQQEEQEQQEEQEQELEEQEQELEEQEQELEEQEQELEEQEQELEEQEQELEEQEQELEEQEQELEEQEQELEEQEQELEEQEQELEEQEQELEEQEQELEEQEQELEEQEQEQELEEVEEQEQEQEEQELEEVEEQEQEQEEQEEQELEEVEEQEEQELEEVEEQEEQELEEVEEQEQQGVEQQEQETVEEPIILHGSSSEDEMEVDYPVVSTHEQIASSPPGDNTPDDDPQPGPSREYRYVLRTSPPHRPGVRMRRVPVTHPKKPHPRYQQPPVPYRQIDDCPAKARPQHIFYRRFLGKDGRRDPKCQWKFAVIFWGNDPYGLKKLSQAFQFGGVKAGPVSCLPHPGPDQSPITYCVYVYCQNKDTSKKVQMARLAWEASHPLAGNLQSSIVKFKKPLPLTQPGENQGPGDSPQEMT
# T cruzi inh: blocks replication of Trypanosoma cruzi. T. cruzi beta-gal in NIH3T3, luminescence, 90 h. 300,000 compounds, 1.4% hits. inhibition, % (concentration not given with the values). AID 1885;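 active = mean inhibition across valid replicates above about 55%, limit read from the data; inconclusive = mean below that limit but half or more replicates reach it; inactive = mean below it, under half of replicates reach it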;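 note: signal also drops with host cell toxicity which is not excluded here; 0% = plate median of DMSO wells and 100% = zero luminescence signal; higher percent means less beta-gal luminescence so fewer parasites; stock transfer was 50 nL into about 50 µL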
# UCH37 DUB inh: human UCH37 deubiquitinating enzyme inhibition; purified proteasome/UCH37, Ub-AMC cleavage fluorescence; inhibition, % (no concentration beside the values); 330,000 compounds, 0.33% hits; AID 588478;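 active = mean of two replicates above 20%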;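 note: 0% = compound-free wells with enzyme and 100% = wells lacking proteasome; stock transfer was 100 nL into about 20 µL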
#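 Material: human UCH37 enzyme supplied as purified proteasome complex. Measure: % inhibition of Ub-AMC cleavage fluorescence. Medium: pH 7.4 Tris-HCl (50 mM) with ovalbumin, ATP-MgCl2, DTT. Times: 30 min preincubation with enzyme, 25 min cleavage at room temperature. Detection: AMC fluorescence intensity at 355/460 nm.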
# Bfl-1 A1 inh: inhibitors of the anti-apoptotic protein A1, read as caspase activation; MEF A1-2A-BIM cells, Caspase-Glo 3/7 luminescence, 3 h; percent of clofoctol response, vehicle zero; caspase activation, % (no concentration beside the values); 330,000 compounds, 0.066% hits; AID 2462;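 active = over half of replicate activation scores above 10%, or exactly half above 10 with the replicate mean above 10; inconclusive = replicate mean below 10 yet half the replicates above 10; inactive = over half of replicates below 10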;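 note: wells of about 30 µL received 50 nL stock; many hits fall short of the cut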
# RanGTP-Imp inh: inhibitors of RanGTP-importin-beta interaction, primary screen, biochemical, FRET, CFP-Ran, YFP-importin-beta, homogeneous; cell-free CFP-Ran/YFP-importin-beta FRET ratio; inhibition, % (concentration not given with the values); 300,000 compounds, 1.1% hits; AID 2216;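 active = most replicates above 15%; inconclusive = exactly half above 15%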;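 note: 0% = DMSO wells and 100% = Ran loaded with GDP instead of GTP; wells of about 40 µL received 100 nL stock; the first replicate is given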
# * marks the source's active call; other numbers are inactive results; ? = inconclusive; nt = no result given.
SMILES,B2AR ag,Beta cell apopt,Calb FLC,LANA-H2B inh,T cruzi inh,UCH37 DUB inh,Bfl-1 A1 inh,RanGTP-Imp inh
CC(C)c1nc(SCC(=O)N2CCCc3ccccc32)c2c(=O)n(C)c(=O)n(C)c2n1,21.7,14.4,1.7,-8.7,25.1,3.7,-0.5,0.3
COc1ccccc1NC(=O)CSc1nncn1-c1cccnc1,-14.1,1.9,-1.5,-5.9,-5.5,-0.1,-0.6,7.4
COc1ccc(S(=O)(=O)NCc2ccncc2)cc1NC(=O)c1ccccc1C,5.3,5.4,-2.0,1.2,-0.8,0.1,0.1,1.8
CC(C)COC(=O)CCNc1n[nH]c(=O)[nH]c1=O,0.3,-4.0,2.8,-2.4,-1.9,5.1,0.2,-6.7
CC(C)(C)c1nnc(NC(=O)CCS(=O)(=O)Cc2ccccc2)s1,-2.1,-16.8,70.1,5.4,-6.6,2.3,-0.1,-0.8
Cc1cc(S(=O)(=O)Nc2ccc(F)cc2)c(C)s1,1.7,-7.1,-18.5,-0.8,7.2,0.5,-0.4,-1.6
CCCC(CCC)C(=O)OC1C[C@H]2CC[C@@H](C1)[N+]2(C)C (stereo not given in full),-1.5,1.3,nt,-13.3,-9.5,6.2,-0.7,2.7
Cc1ccc2cc(CCNC(=O)c3ccc(S(=O)(=O)N4CCCCC4)cc3)c(=O)[nH]c2c1,3.8,-0.8,-2.3,2.5,-4.2,6.0,0.3,?
COC(=O)C1=C(C)NC(=O)/C1=C\c1ccco1,-2.8,1.1,-4.8,-0.7,8.5,9.0,0.2,-0.5
COc1nc(-c2ccccc2)ccc1-c1noc(C)n1,1.6,-1.1,-9.4,-0.2,6.8,-0.9,0.1,nt
COc1ccc(C(CNC(=O)c2oc3ccc(Cl)cc3c2C)N2CCCCC2)cc1 (stereo not given),-8.2,5.7,-15.1,-1.7,52.5,2.3,-0.3,2.0
CCN(CC)S(=O)(=O)c1cccc(NC(=O)C2CC(=O)N(c3ccc4c(c3)OCCO4)C2)c1 (stereo not given),-4.8,5.1,-0.7,1.6,1.5,5.0,0.9,-3.7
O=C(NC(=S)N1CCCC1)c1ccc(Cl)cc1Cl,-2.4,-7.3,11.4,2.7,-13.3,-0.6,0.7,?
Cc1nc2scc(C)n2c(=O)c1S(=O)(=O)N1CCN(c2ccccc2)CC1,1.0,-1.2,-16.0,2.4,14.5,5.1,-0.4,-3.0
COc1ccccc1CCc1nnc(CCC(=O)N(C)Cc2cccc3cnccc23)o1,0.8,0.4,?,0.5,4.1,1.9,-1.5,-1.2
COc1ccc(CNC(=O)CN(C)S(=O)(=O)c2ccc3c(c2)c(=O)n(C)c(=O)n3C)cc1,-4.2,-1.5,2.1,-0.6,4.0,3.9,0.6,-0.7
COc1ccc(OCC(=O)Nc2cc(-c3nn(C)c(=O)c4ccccc34)ccc2OC)cc1,7.8,23.0,-6.3,-3.6,16.9,0.5,-0.3,0.5
C/C=C/C(=O)Nc1cccc(C2=NOC3(C2)C[C@H](C(N)=O)N(C(=O)c2ccccc2C(=O)c2ccccc2)C3)c1 (stereo not given in full),nt,nt,-1.2,nt,-10.6,1.9,nt,-0.2
CC1(C)C(=O)Nc2ccccc2N1C(=O)COC(=O)CCSc1ccccc1,0.3,-2.7,3.5,-2.9,-0.5,2.6,0.6,2.3
CN(C)CCCN(C(=O)c1ccco1)c1nc2cc3c(cc2s1)OCO3,0.6,nt,-12.1,-3.3,56.7*,6.0,-0.2,1.6

# Two entries from above, with two lines to a compound:
# Sequence of screens – B2AR ag	Beta cell apopt	Calb FLC	LANA-H2B inh	T cruzi inh	UCH37 DUB inh	Bfl-1 A1 inh	RanGTP-Imp inh
- CCN(CC)S(=O)(=O)c1cccc(NC(=O)C2CC(=O)N(c3ccc4c(c3)OCCO4)C2)c1 (stereo not given)
  -4.8	5.1	-0.7	1.6	1.5	5.0	0.9	-3.7
- O=C(NC(=S)N1CCCC1)c1ccc(Cl)cc1Cl
  -2.4	-7.3	11.4	2.7	-13.3	-0.6	0.7	?

# Next section
SMILES,B2AR ag,Beta cell apopt,Calb FLC,LANA-H2B inh,T cruzi inh,UCH37 DUB inh,Bfl-1 A1 inh,RanGTP-Imp inh
CSc1ncc(Cl)c(C(=O)NCc2ccc3c(c2)OCO3)n1,-5.9,-2.3,-30.2,-4.8,11.9,2.4,-0.3,-0.4
CN(C)S(=O)(=O)N(CC(=O)Nc1ccc2ccccc2c1)c1ccccc1,-2.8,6.5,2.5,-0.2,6.0,0.8,0.3,2.2
Cc1csc(SCC(=O)NC(=O)NCCC(C)C)n1,-4.7,-4.2,3.0,-1.1,-13.0,-0.2,0.2,6.7
CCOC(=O)c1sc2ncnc(NCC(c3cccs3)N(C)C)c2c1C (stereo not given),1.7,3.0,-3.6,2.6,42.5,-3.9,0.0,0.3
CC(C)(C)NC(=O)C(OC(=O)c1cccs1)c1ccccc1 (stereo not given),-2.1,-3.9,-39.2,-0.6,-4.4,-1.8,1.6,-2.5
O=C(Nc1ccc2c(c1)OCO2)c1ccc2c(c1)S(=O)(=O)c1ccccc1C2=O,10.2,-1.6,-17.0,-4.0,-20.8,1.5,0.3,2.6
CC(=O)C1C(c2ccc(Cl)cc2)c2c(noc2C)CC1(C)O (stereo not given),5.0,2.9,-3.3,-2.3,-1.8,4.8,0.7,0.2
CCN1C/C(=C/c2ccc(N3CCOCC3)cc2)C(=O)/C(=C/c2ccc(N3CCOCC3)cc2)C1,-2.0,6.0,1.4,-12.5,-5.7,8.3,-0.1,2.5
CCC(CC)C(=O)Nc1c2c(nn1-c1ccc(C)cc1)CS(=O)(=O)C2,-4.8,-5.4,-5.6,-0.8,-3.2,0.7,0.2,?
OCCC1CN(CCCc2ccccc2)CCN1CCc1ccccc1 (stereo not given),7.5,-6.9,-13.1,-3.4,13.9,1.6,0.6,1.8
Cc1cccc(-n2c(O)c(C=Nc3ccccc3)c3ccccc3c2=O)n1,-14.0,-1.0,34.2,-1.8,-16.4,5.3,0.5,1.7
C=CCNC(=S)NC1CC(C)(C)NC(C)(C)C1,-6.1,-0.1,9.4,2.0,-13.7,3.8,-0.2,-1.5
Cc1ccc(CC2C(=O)N(c3cc(Cl)ccn3)C(=O)C2C)cc1 (stereo not given),1.4,-3.8,-17.3,1.7,-18.4,1.3,-0.2,2.3
O=c1cccc(-c2ccc(Br)cc2)o1,-0.7,1.8,9.3,-3.0,-9.7,3.1,-0.6,4.3
O=C(NCC1CCCO1)c1nc2c(nnn2Cc2ccc(F)cc2)c(=O)[nH]1 (stereo not given),-0.1,-3.0,1.0,-0.9,0.7,4.9,0.1,0.6
O=C(CS(=O)(=O)c1ccc(Cl)cc1)Nc1nnc(-c2cccs2)o1,15.6,-3.4,-2.4,3.6,-11.2,-1.1,-1.6,-1.1
COC(=O)c1ccc(S(=O)(=O)N(Cc2ccccc2)Cc2ccccc2)n1C,-1.6,0.3,-2.6,0.5,13.1,6.8,-0.8,-2.3
COc1cc(OC)c(OC)cc1/C=N/NC(=O)CSc1ccccc1F,0.1,-5.5,-5.1,-0.9,-5.7,nt,0.7,3.1
COc1cccc(NC(=S)N(CCCN2CCC(C)CC2)Cc2cccs2)c1,-0.1,-6.5,-41.6,-1.2,-3.8,2.9,-0.4,-0.7
CN(CC(=O)Nc1c(Cl)cccc1Cl)C(=O)c1cc(S(=O)(=O)N(C)C)ccc1N1CCCC1,-0.6,-2.2,1.9,0.5,1.7,2.5,1.3,?
Nc1nc(SCC(=O)Nc2ccc([N+](=O)[O-])cc2)[nH]c(=O)c1NC(=O)c1ccc(Br)o1,-0.1,3.9,nt,-9.1,12.2,nt,0.2,nt
COc1ccc(S(=O)(=O)NCc2cc(=O)n(C)c(=O)n2C)cc1F,-4.5,-3.3,-6.8,-2.0,-9.9,3.8,-1.1,2.1
Cn1ccnc1C1CCCCN1C(=O)c1cc(COc2ccc(F)cc2F)on1 (stereo not given),-12.5,5.8,2.5,-1.2,-3.3,3.0,1.2,-1.2
CCOC(=O)N1CCN(C(=O)C(C)NC(=O)c2ccco2)CC1 (stereo not given),1.3,-0.1,9.7,-0.3,-19.3,1.1,-0.2,-1.8
O=C(CSC1=NCCN1)NC12CC3CC(CC(C3)C1)C2,1.3,-15.0,5.5,-3.3,9.1,3.8,1.6,-1.2
O=C(CCNS(=O)(=O)c1ccccc1)NNC(=O)c1cccc(Cl)c1,-6.0,-1.0,nt,1.1,nt,0.8,0.8,nt
Cc1ccc(C(=O)N/C(=C\c2cccs2)C(=O)N2CCOCC2)cc1C,-10.2,-2.2,-6.8,-6.3,0.4,9.3,-0.1,5.8
Cc1ccc2c(c1)N(CC(=O)NCCCN1CCOCC1)C(=O)c1cccnc1O2,2.7,-0.8,1.3,-4.9,-19.2,3.8,0.1,-2.6
O=C(OC1CCCCC1=O)c1cc(Cl)ccc1[N+](=O)[O-] (stereo not given),-14.4,4.9,-4.7,-1.1,-35.1,0.2,-0.8,?
CC1(C)CC(=O)C(C=Nc2ccc3[nH]ncc3c2)=C(O)C1,-7.3,-1.9,23.0,3.3,-17.7,-7.9,1.0,5.4
CCc1ccc(-n2c(=O)c3c(C)c(C)sc3n(CC(=O)NCC3CCCO3)c2=O)cc1 (stereo not given),-4.6,4.1,6.0,0.0,10.8,2.0,-0.7,-2.2
COc1ccc(OCCCC(=O)Nc2cccnc2)cc1,-3.8,-4.6,1.3,-2.3,-11.1,0.0,0.8,0.0
O=C(/C=C/c1ccco1)N(c1ccccn1)c1ccccn1,-4.1,-2.0,-0.7,1.7,-10.7,5.4,0.2,6.1
COC(=O)CCCC1=CC2=CC(=O)C(C)(OC(=O)c3cccs3)C(=O)C2=CN1CC1CC1 (stereo not given),-8.6,-3.3,4.6,6.3,35.5,3.9,0.3,-8.4
CC(C)C[C@H](NC(=O)Nc1cccc(C(F)(F)F)c1)C(=O)O,11.1,0.8,0.5,0.5,-15.6,3.2,-0.3,-0.8
COc1cccc(N2CCN(C(=O)C3CCN(S(=O)(=O)c4ccc5c(c4)oc(=O)n5C)CC3)CC2)c1,-11.6,3.2,0.0,-4.4,-7.2,4.8,0.0,-1.8
Cc1cccc([C@@H]2[C@@H]3C(=O)N(Cc4ccccc4)C(=O)[C@@H]3[C@]3(Cc4ccc(Cl)cc4)C(=O)N(c4ccc(Br)cc4)C(=O)N23)c1,-3.1,11.2,14.7,-2.5,40.1,2.7,-1.3,-1.8
O=C(Cc1ccccc1)N/N=C/c1ccccc1OCc1ccc(Cl)cc1,9.2,11.9,-11.3,1.7,-6.0,nt,-1.5,-1.3
COc1cccc(/C(C)=N/Nc2ccc(S(=O)(=O)N3CCCCC3)cn2)c1,9.5,11.0,nt,-0.8,nt,nt,0.1,nt
CCn1c(CNC(=O)c2ccco2)nnc1SCC(=O)Nc1cc(F)ccc1C,0.3,-3.5,-6.5,2.7,2.7,2.8,-0.3,-4.4
Cc1nc(N2CCN(C(=O)c3ccco3)CC2)c(C#N)c2c1CCCC2,0.2,2.8,14.6,2.9,2.5,-53.7,-0.3,4.6
Cc1c(NC(=O)c2c(N)n(-c3ccccc3)c3nc4ccccc4nc23)c(=O)n(-c2ccccc2)n1C,nt,-4.8,-3.1,-1.7,4.1,nt,-0.3,?
